Ecoli rRNA inh: inhibits bacterial ribosomal RNA function over humanized ribosomes. E. coli WT GFP vs humanized-ribosome RFP mutants, fluorescence, 24 h; active compounds read low; DMSO median 0, no signal -100. actives 1.6% (n = 350,000). GFP signal change (wild-type ribosome), % (concentration not given with the values);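 active means significant combined selectivity score with lowered wild-type GFP, culture density cut under 30%, mutant RFP and density less affected; inactive means any of these conditions unmet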; further: one replicate is shown; some compounds called inactive have numbers as strong as hits
MLL AF4-AF9 inh: MLL-AF4/AF9 protein interaction inhibition | P42568 | inhibition, % at 10 µM | AlphaScreen, biotin-AF4 peptide binding to FLAG-AF9 | actives 0.47% (n = 350,000);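 active means every replicate reaching a set inhibition limit, whatever the replicate mean, cut at about 25% in these data; inconclusive means mean inhibition reaches that limit but some replicates miss it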;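 further: 0% = plate neutral control median and 100% = total signal loss; the record names both 10 and 1 µM as test concentration; the first replicate is given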
Ecoli growth: E. coli growth inhibition | Escherichia coli growth, OD600, 23 h; active compounds read low | OD600 absorbance (concentration not given with the values) | actives 0.21% (n = 330,000);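 active means OD600 absorbance below the run mean of sample wells minus 3.6 SD, in any replicate, cut at about 0.56 in these data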;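 further: stock transfer was 300 nL into about 60 µL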
ALR H2O2 inh: inhibitors of human sulfhydryl oxidase ALR | actives 3.8% (n = 290,000) | purified ALR, DTT oxidation, H2O2 HRP-luminol luminescence | inhibition, % (concentration not given with the values) | AID 485317;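 active means mean and each replicate at 75% or more; inconclusive means only one of the two met; inactive means neither met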;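 further: stock transfer was 7.5 nL into about 7.5 µL; 0% = neutral wells and 100% = wells with inactivated enzyme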
Target sequence (P55789 whole entry, looked up): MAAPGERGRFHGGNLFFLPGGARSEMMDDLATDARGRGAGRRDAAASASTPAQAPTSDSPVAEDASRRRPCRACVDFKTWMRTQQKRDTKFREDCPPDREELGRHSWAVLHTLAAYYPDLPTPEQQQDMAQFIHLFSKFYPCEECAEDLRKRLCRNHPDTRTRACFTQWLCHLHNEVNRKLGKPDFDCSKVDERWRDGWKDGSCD
Vif A3G: HIV-1 Vif–A3G interaction blockers – biochemical, TR-FRET, GST-Vif 1-94, biotin-A3G peptide, dose response retest, primary screen (AID 1117319) | TR-FRET GST-Vif / biotin-A3G peptide binding; higher % means a stronger effect; test concentration not given here; strong numbers were not always called active | inhibition, %; hits with a dose series show IC50 in µM | actives 0.57% (n = 260,000);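 active means above the screen mean plus three standard deviations and confirmed in dose response; inconclusive means results disagree or hit not tested in dose response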;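 further: Vif residues 1-94 fused to GST binding biotinylated APOBEC3G peptide 110-148; 0% = full assay without inhibitor and 100% = GST in place of GST-Vif; retest series ran down from 100 µM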
HNF4A DNA FP: change in binding of human HNF4 alpha to DNA; P41235; actives 0.3% (n = 360,000); HNF4a-FITC DNA binding, fluorescence polarization, 1 h; activity change, % at 10 µM; in the data active means activity change above about 30%, passing the limit was not always enough;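 further: controls were the assay level and a saturating level of protein; the project sought stronger binding though the title names inhibitors; some compounds called inactive have numbers as strong as hits; positive values seem to mean higher polarization but the record does not say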
Target sequence (P41235 whole entry, looked up): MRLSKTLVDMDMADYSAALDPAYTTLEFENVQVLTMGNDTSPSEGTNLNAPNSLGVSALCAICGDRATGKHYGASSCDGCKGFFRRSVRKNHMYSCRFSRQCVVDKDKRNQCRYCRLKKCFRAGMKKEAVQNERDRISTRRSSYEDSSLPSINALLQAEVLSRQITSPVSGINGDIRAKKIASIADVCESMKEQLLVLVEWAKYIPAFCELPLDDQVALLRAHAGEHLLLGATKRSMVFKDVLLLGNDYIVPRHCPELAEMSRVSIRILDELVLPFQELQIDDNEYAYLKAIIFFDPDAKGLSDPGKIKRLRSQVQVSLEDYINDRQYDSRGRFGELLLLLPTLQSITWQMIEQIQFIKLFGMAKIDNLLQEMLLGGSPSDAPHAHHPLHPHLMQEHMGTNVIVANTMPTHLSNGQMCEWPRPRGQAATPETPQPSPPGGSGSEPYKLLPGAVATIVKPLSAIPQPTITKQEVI
FGF22 binding: shifts melting point of recombinant human FGF22; recombinant FGF22 thermal shift, SYPRO orange fluorescence; percent of sucrose octasulfate shift, DMSO zero; calls only at 9.99 µM; actives 1.5% (n = 340,000);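 active means melting point raised past a set limit in the mean and every replicate; inconclusive means no clear call; three in four hits are not shown here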
Target sequence (Q9HCT0 whole entry, looked up): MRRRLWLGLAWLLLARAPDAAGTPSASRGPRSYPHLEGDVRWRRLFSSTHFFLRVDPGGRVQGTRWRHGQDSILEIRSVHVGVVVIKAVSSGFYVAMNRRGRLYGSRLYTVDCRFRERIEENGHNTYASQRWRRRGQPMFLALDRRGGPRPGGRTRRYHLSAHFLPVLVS
Ecoli rRNA inh OD600: further read-out of Ecoli rRNA inh, marked with its call; OD600 change, %; measured here: OD600 growth;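 optical density of the mix in the first replicate; 0 = DMSO median and -100 = no signal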
Ecoli rRNA inh RFP: recorded beside Ecoli rRNA inh, whose call it bears; RFP signal change, %; measured here: RFP humanized mutant strains;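 first replicate; 0 = DMSO median and -100 = no signal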
The depositor's hits bear a star; i = inactive; ? = inconclusive; · = no result given.

SMILES	Ecoli rRNA inh	Ecoli rRNA inh OD600	Ecoli rRNA inh RFP	MLL AF4-AF9 inh	Ecoli growth	ALR H2O2 inh	Vif A3G	HNF4A DNA FP	FGF22 binding
CCOC(=O)C1CCN(C(=O)CCCn2nc(CC)n3c(cc4occc43)c2=O)CC1	-3.7	-4.3	1.2	-0.5	0.662	4.9	-10.5%	2.1	i
Cc1nn(C)cc1CN(C)C(=O)CC12CC3CC(CC(C3)C1)C2	·	·	·	·	0.704	-14.8	-5.7%	-2.1	·
CS(=O)(=O)N(CC(=O)O)c1cc(Cl)cc(Cl)c1	·	·	·	·	0.737	-7.9	0.7%	2.4	·
O=C(O)CC(CC(=O)Nc1ccc(-c2ccccc2)cc1)c1ccccc1 (centres undefined)	-15.9	-22.4	-0.4	-0.8	0.681	·	-4.5%	-0.9	i
COC(=O)CN1C(=S)N(c2ccccc2)C(=O)C1CC(=O)Nc1ccc(Cl)cc1 (centres undefined)	-7.5	2.6	-1.3	?	·	1.9	20.4%	3.2	i
Cc1cc(C)cc(NC(=O)Cn2cnc3c(nnn3Cc3ccc(F)cc3)c2=O)c1	-9.0	8.8	-1.7	-2.3	0.684	-19.5	7.7%	-3.3	i
COCCN1C(=O)c2ccccc2C(C(=O)Nc2ccc3c(c2)OCCO3)C1c1ccc(F)cc1 (centres undefined)	·	·	·	·	0.673	-1.0	-6.3%	-1.2	·
COc1ccc([N+](=O)[O-])cc1NC(C)C	10.8	4.1	-0.1	-2.0	0.728	-16.2	0.2%	0.5	i
CN1CC2(Cc3c1ccc1ccccc31)C(=O)OC(C)(C)OC2=O	·	·	·	·	0.68	?	16.0%	-3.4	·
Cc1ccc(C)c(NC(=S)NCCN2CCOCC2)c1	·	·	·	·	0.707	-5.0	3.1%	2.3	·
Cc1nc2scc(C)n2c(=O)c1S(=O)(=O)NCc1ccccc1	4.2	5.3	-2.6	1.6	0.678	-1.9	·	-49.2	i
O=C(Nc1cccc(Cl)c1)N[C@H]1CC[C@@H](CCNC(=O)C2CCOCC2)O[C@@H]1CO	1.6	8.7	-1.0	0.6	·	·	·	·	i
COc1ccc(S(=O)(=O)N(C)C[C@@H]2OCCCC[C@H](C)Oc3ccc(NC(=O)c4ccncc4)cc3C(=O)N([C@H](C)CO)C[C@H]2C)cc1	-3.4	-0.9	0.9	2.2	·	·	·	·	i
NC(=O)c1cc(S(=O)(=O)NCCCc2ccco2)cs1	11.6	9.5	2.9	0.5	0.694	-0.3	·	0.4	i
Cc1cc(C)cc(NC(=O)c2sc3nc(C)cc(C)c3c2N)c1	-8.9	1.3	-7.4	-2.7	0.676	3.3	·	3.4	i
COc1ccc(OC)c(C(=O)C2COC(=O)C2)c1 (centres undefined)	·	·	·	·	0.689	-3.8	1.3%	-0.1	·
C=CCn1c(SCC(=O)N(CC)C2CCS(=O)(=O)C2)nc2ccccc2c1=O (centres undefined)	8.1	-1.5	-0.1	2.7	0.676	-2.6	-3.5%	-4.5	i
COc1ccccc1CN1CCNC(=O)C1CC(=O)N(C)Cc1nc(C)cs1 (centres undefined)	13.6	7.3	10.8	1.7	·	-0.1	·	-0.9	i
COc1ccc(NC(=O)CSC2=NC(=O)CC(C)=N2)cc1	-1.4	-1.0	0.5	·	0.707	-12.0	16.1%	2.0	·
O=C(CSc1ccc2ccccc2c1)NCCc1ccc(O)c(O)c1	-22.3	-23.2	-4.5	11.3	0.664	99.0*	?	-1.3	i
O=C(NCc1ccc2c(c1)OCO2)C(=O)NCC1OCCCN1S(=O)(=O)c1cc(F)ccc1F (centres undefined)	2.9	-3.5	0.6	-0.9	0.73	-0.1	·	1.3	i
CCN1CCN(/C=N/c2nc(C)cs2)CC1	10.7	6.0	3.9	7.4	·	-10.7	2.6%	4.6	i
CCc1ccccc1Nc1nc(N)nc(COC(=O)c2cccn2C)n1	·	·	·	·	0.735	-0.5	0.8%	-1.3	·
Cc1ccc(C(=O)N2CCN(CCNC(=O)C(=O)Nc3ccc(Cl)cc3)CC2)cc1	0.3	0.2	1.5	-0.4	0.7	·	4.8%	3.4	i
COc1ccc(/C(C)=N/NC(=O)c2nc(C)cc(C)n2)cc1	·	·	·	·	·	-0.2	13.1%	0.7	·
CC(C)(C)Cc1nnc(NC(=O)c2cc(-c3ccccc3)nc3ccccc23)s1	·	·	·	·	0.732	3.6	32.8%	-1.2	·
CCc1ccc(OCC(=O)O/N=C(\N)c2cccnc2)cc1	-17.6	-10.6	-1.5	·	0.627	2.5	-6.2%	-3.0	i
CCOC(=O)c1cc(C#N)c(NCc2ccccc2)nc1C	·	·	·	·	0.753	-6.9	-4.4%	-3.9	·
CC(C)=CCN1CCN(CCCn2cccn2)CC1CCO (centres undefined)	·	·	·	·	0.731	-10.1	10.6%	3.1	·
CC1CSc2nc3sc4c(c3c(=O)n21)CCCC4 (centres undefined)	·	·	·	·	0.725	-9.3	-4.8%	3.3	·
O=C(O)CCC(NC(=O)OCc1ccccc1)C(=O)O (centres undefined)	·	·	·	·	0.701	-1.3	-5.2%	1.1	·
CN1CCN(NS(=O)(=O)c2ccc(Cl)s2)CC1	18.1	3.8	0.0	-27.4	0.685	9.2	·	-3.0	i
O=C(Nc1ccccc1)c1ccc(NCc2ccco2)c(S(=O)(=O)N2CCOCC2)c1	·	·	·	·	0.725	·	1.7%	1.2	·
c1cn(CCCNC2CCCCCCC2)cn1	10.5	13.9	-0.3	-1.5	0.717	-9.9	·	1.1	i
c1ccc(C(c2ccccc2)c2ccn[nH]2)cc1	-6.9	-5.4	-1.6	1.1	0.666	-1.4	·	1.1	i
C[C@@H]1CN([C@@H](C)CO)C(=O)c2cccc(NC(=O)c3cnccn3)c2O[C@@H]1CN(C)C(=O)Nc1ccc2c(c1)OCO2	4.4	3.9	-0.9	1.7	·	·	·	·	i
Cc1ccccc1NC(=O)Cc1nc(-c2c[nH]c(C(=O)N3CCCC3)c2)cs1	13.3	8.2	3.6	0.2	0.659	34.1	-18.5%	7.5	i
COc1cccc(N/C(SCc2cccc([N+](=O)[O-])c2)=C(/C#N)C(N)=O)c1	-11.6	-12.5	-0.6	8.3	0.729	98.9*	5.0%	-5.2	i
Cc1noc(C)c1NC(=O)N(C)C[C@@H]1OCCCC[C@@H](C)Oc2ccc(NC(=O)Nc3ccc(F)cc3)cc2C(=O)N([C@H](C)CO)C[C@@H]1C	-3.3	-1.3	-2.0	-3.9	·	·	·	·	i
CN(C)c1ccc(NC(=O)Nc2ccc3c(c2)c(=O)n(C)n3-c2ccccc2)cc1	-1.3	-8.5	1.3	12.3	·	·	·	0.6	i
COc1cccc(-c2ccc3n(c2=O)C[C@H]2[C@H](CO)[C@@H](C(=O)NC4CCC4)[C@@H]3N2C)c1	1.3	3.1	-1.8	-13.5	·	·	·	·	i
CCCCOc1ccc(C(=O)NCC(=O)NNC(=O)c2ccco2)cc1	1.9	-8.4	-1.9	-2.2	0.669	1.5	-5.6%	-1.5	i
COCCNc1nc(-c2ccc(OC)cc2C)c2sc(-c3ccccc3)cc2n1	-7.2	-16.1	0.2	0.8	·	·	·	3.2	i
O=c1ccccn1CCOc1ccccc1Cl	·	·	·	·	0.67	-1.5	-2.4%	-1.9	·
O=C(Nc1ccc(F)cc1)C(c1cccc(F)c1)N1CCN(c2cccc(C(F)(F)F)n2)CC1 (centres undefined)	14.2	5.0	4.1	3.0	·	·	·	0.9	i
CC(=O)c1ccc(N2CCN(C(=O)C3CCCN3S(=O)(=O)c3cccc4nsnc34)CC2)cc1 (centres undefined)	2.8	-0.4	-0.4	1.4	0.702	2.2	2.5%	0.3	i
COc1cccc(OCC(O)CN2CCN(C)CC2)c1 (centres undefined)	17.3	8.5	-8.7	-7.8	0.69	-0.8	-4.6%	1.2	i
COc1ccc(NC(=O)CN(C)S(=O)(=O)c2cnc[nH]2)cc1	17.7	24.8	6.9	-0.9	0.659	-4.5	·	0.0	i
ClCC(CNCc1ccccc1)c1ccccc1 (centres undefined)	-2.1	-4.8	-0.3	-0.4	0.625	·	4.9%	-1.6	i
Cc1ccc(CC(=O)Nc2nncs2)cc1	·	·	·	·	0.728	·	19.4%	3.1	·
CCN(CCCNC(=O)CSc1cc(=O)n(C)c2cc(Cl)ccc12)Cc1ccccc1	4.7	-4.5	5.0	-1.1	0.684	-3.5	2.9%	2.5	i
COc1nc(-c2ccccc2)ncc1S(=O)(=O)c1ccccc1	-11.9	-14.6	-3.3	-2.8	0.697	-4.2	-0.8%	-1.9	i
S=c1[nH]nc(-c2ccccn2)n1/N=C/c1ccc(-c2ccccc2Cl)o1	-2.6	-6.2	-6.6	-13.5	·	96.7*	-21.1%	1.7	i
O=C(C[C@H]1C[C@H]2c3cc(NC(=O)NC4CCCC4)ccc3O[C@H]2[C@H](CO)O1)NCc1cccc(F)c1	2.9	15.8	-1.0	-0.7	·	·	·	·	i
COc1ccc(Cc2nnc(NC(=O)c3cccs3)s2)cc1	·	·	·	·	0.697	4.8	-9.6%	-1.9	·
CCOC(=O)C(=CNc1cccc(C)n1)C(=O)OCC	·	·	·	·	0.684	-6.8	-2.0%	-2.4	·
O=C(c1ccccc1NS(=O)(=O)c1ccc(F)cc1)N1CCCC1	·	·	·	·	0.693	-7.6	27.7%	1.6	·
CC(C)(C)C(=O)Nc1ccc(C(=O)N/N=C/c2ccccc2OC(=O)c2ccc(Cl)cc2)cc1	·	·	·	·	·	-5.7	11.8%	0.8	·
CCS(=O)(=O)N1[C@@H](CO)[C@@H](c2ccccc2)C12CN(C(=O)C1CC1)C2	2.0	4.2	-2.1	-1.9	·	·	·	·	i
COc1ccc(CCN(C)C(=O)c2ccc(S(=O)(=O)NCc3ccco3)cc2)cc1OC	·	·	·	·	0.669	·	8.5%	3.4	·
Remaining list, next part
SMILES	Ecoli rRNA inh	Ecoli rRNA inh OD600	Ecoli rRNA inh RFP	MLL AF4-AF9 inh	Ecoli growth	ALR H2O2 inh	Vif A3G	HNF4A DNA FP	FGF22 binding
COC(=O)C(Cc1ccc(O)cc1)NC(=O)c1ccccc1OC (centres undefined)	·	·	·	·	0.739	63.0	0.6%	2.7	·
COc1ccc(-c2nnc3cccc(Cl)n23)c(OC)c1	6.1	-4.8	-0.3	1.0	0.695	-0.1	1.8%	3.7	i
O=C(O)c1cc(S(=O)(=O)N2CCCCC2)ccc1Cl	5.5	7.5	1.5	-0.4	0.639	-0.9	·	1.6	i
Cc1cccc(NC(=O)Cn2nc(C(F)(F)F)cc2C2CC2)c1	-29.5	-34.2	-18.6	0.5	0.645	·	7.2%	1.2	i
CCOc1ccc(C(O)c2nccn2Cc2ccccc2)cc1 (centres undefined)	·	·	·	·	0.687	6.0	2.1%	0.4	·
COc1ccc(S(=O)(=O)N(C)C[C@@H]2Oc3ccc(NC(=O)Nc4ccc(F)cc4)cc3C(=O)N([C@@H](C)CO)C[C@@H]2C)cc1	-2.2	-5.4	2.8	1.8	·	·	·	·	i
Cc1ccc(C(=O)Nc2cccc(C(=O)NC3CCCCC3)c2)cc1	14.2	19.9	-1.2	-0.8	0.741	-1.6	-4.7%	-1.2	i
O=C(c1ccccc1)N1CCN(S(=O)(=O)c2ccccc2)CC1	7.5	5.1	-0.7	7.3	0.671	1.7	·	1.4	i
O=C1c2cccc3cccc(c23)C(=O)N1c1ccccc1Cl	-31.6*	-6.2*	4.2*	-10.3	0.693	-3.5	·	1.5	i

A portion of the library. The share of hits here may be higher or lower than overall.
